# Screening results deposited in PubChem BioAssay by Fisher Drug Discovery Resource Center.
# NPYLR7 agonist – mosquito NPYLR7 agonism. HEK293T NPYLR7/Galpha15, GCaMP6s calcium fluorescence. AID 1259423. 270,000 tested, 0.15% active. activation, % at 10 µM; in the data active = activation above about 40%;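 note: 0% = vehicle and 100% = reference agonist at the receptor; some compounds past the cut are filed as inactive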
# NPYLR7 agonist max-min – further read-out of NPYLR7 agonist, marked with its call; activation, %; measured here: Max-Min RFU normalised activation; some inactives read as strong as hits;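 span of the calcium signal over five minutes; 0% = vehicle and 100% = native peptide agonist; compound fluorescence can raise it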
# * marks the source's active call; other numbers are inactive results.
# Below each compound: NPYLR7 agonist | NPYLR7 agonist max-min
1. O=C(CN1CCc2sccc2C1c1cccc(F)c1)N1CCCN(S(=O)(=O)c2cc(Cl)ccc2Cl)CC1 (stereo not drawn)
  15 | 4
2. O=C(NC1CCN(c2ccccc2C(=O)N2CCOCC2)CC1)c1ccc(F)cc1F
  5 | 17
3. CC(C)(CN1CCCC1)CN1CCN(Cc2cccc(F)c2)CC1
  5 | 4
4. CNCCOc1ccc(Cl)c(Cl)c1
  -7 | 11
5. O=C(Nc1ccc(OC(F)(F)F)cc1)c1cnn2c(C(F)(F)F)cc(-c3ccco3)nc12
  -4 | -5
6. CCN(CC)C(=O)c1cc(-c2ccccc2)nc2ccccc12
  3 | -1
7. CC(c1ccon1)N(C)Cc1cnc(S(=O)(=O)C(C)C)n1Cc1ccccc1F (stereo not drawn)
  -6 | -7
8. Cc1c(C(=O)NC(C)c2cccc3ccccc23)cnc2c(-c3cccc(Cl)c3)cnn12 (stereo not drawn)
  23 | 13
9. NC(=O)c1nc(-c2cccs2)nc2c1[nH]c(=O)n2-c1ccccc1F
  -3 | -6
10. S=C(Nc1ccccc1)Nc1nncs1
  2 | 0
11. COCCN(Cc1cccn1C)C(=O)CN(CC(C)C)C(=O)Nc1ccccc1OC
  20 | 13
12. CN(Cc1cc(-c2ccncc2)no1)Cc1cnc(-c2ccccc2)s1
  1 | 2
13. CCSCC(C)NCc1nncn1C1CCCCC1 (stereo not drawn)
  3 | 2
14. Cc1ccc(CC2(CCC(=O)NCc3cc(C(F)(F)F)ccc3F)CCC(=O)N2)cc1 (stereo not drawn)
  -3 | -6
15. CN(CCC(=O)N1CC[C@@]2(O)CCCC[C@H]2C1)S(C)(=O)=O
  -2 | -5
16. O=C(CSc1nnc(-c2ccco2)n1-c1ccc(F)cc1)c1cccc([N+](=O)[O-])c1
  3 | 14
17. CN(Cc1nc2ccccc2s1)C(=O)Cn1nnnc1CN1CCCC1
  -2 | -4
18. Cc1ccc(Cn2nnc3c(=O)n(CC(=O)c4ccc(Cl)cc4)cnc32)cc1
  8 | 11
19. COc1ccc(-n2ncc(Oc3cccc(OC)c3)c(Nc3ccc(C(=O)NCCN4CCOCC4)cc3)c2=O)cc1
  -4 | 1
20. COc1ccc(N2C(=O)CSC23C(=O)Nc2ccc(Br)cc23)cc1 (stereo not drawn)
  14 | 6
21. O=c1c(Cl)c(N2CCC(n3ccnc3)CC2)cnn1-c1ccc(C(F)(F)F)cn1
  -3 | -5
22. CN1CCCN(C(=O)c2ccc(CC3CCCNC3)cc2)CC1 (stereo not drawn)
  1 | 1
23. CCc1c(C)nn(-c2ccc(C(=O)NC3CCCCC3)cc2)c1C
  -9 | -17
24. COc1ccccc1NC(=O)Cn1cc(-c2nnc(C)o2)c2ccccc21
  2 | 8
25. COc1ccc(-c2c(C)noc2-c2ccc(OC)cc2O)cc1
  3 | -1
26. CCc1cc2c(=O)n(CC(=O)N(CCC#N)c3ccc(C)c(C)c3)cnc2s1
  1 | -1
27. COc1ccccc1-n1c(SCc2ccc(C(=O)N3CCOCC3)cc2)nnc1-c1ccc(C)cc1
  26 | 37
28. COCCCNC(=O)c1csc(CSc2nnc(Cc3ccccc3)n2-c2cccc(Cl)c2)n1
  -9 | 5
29. O=C(NN=C1CCc2ccccc21)C1CC1
  -1 | -7
30. COc1ccc(N2C(=O)/C(=C/c3ccc(O)cc3)C(=O)NC2=S)cc1
  0 | -6
31. CN(Cc1ccsc1)C(=O)Cn1cc(Br)ccc1=O
  3 | 9
32. COCCN1C(=O)/C(=C/c2ccc(C(C)C)cc2)SC1=S
  -4 | -9
33. Cc1nc(-c2ccccc2)sc1CNCc1cn[nH]c1C
  2 | -12
34. CC(=O)N1CCN(Cc2nnnn2-c2ccc(F)c(F)c2)CC1
  -1 | -3
35. COc1ccc(OCC(=O)Nc2cc(C)nc3c(C)cc(C)cc23)cc1
  3 | 4
36. O=C(NCc1cccnc1)C1CCN(C2CCN(Cc3cc4ccccc4o3)CC2)CC1
  8 | 10
37. Cc1noc(C)c1C(=O)N1CCC1(C)C(=O)NS(=O)(=O)c1cccc(F)c1 (stereo not drawn)
  -1 | -2
38. Cn1nc(C2CC(=O)Nc3n[nH]c(C4CCC4)c32)c2c(Cl)cccc21 (stereo not drawn)
  0 | -5
39. CCN1CCN(c2c(CN(CCOC)C(=O)c3cccc([N+](=O)[O-])c3)c(C)nn2-c2ccccc2)CC1
  -1 | 0
40. CCc1c(C)nn(CC(=O)N2CCCN(C)C3(CCN(C)CC3)C2)c1C
  -2 | -4
41. COCCn1cc(NC(=O)Nc2cccc(F)c2)c2ccccc21
  15 | 5
42. COc1ccc2c(Cc3nc(C(C)OC)no3)coc2c1 (stereo not drawn)
  1 | 0
43. O=C(c1ccc(C(F)(F)F)cc1)N1CCC(n2c(=O)[nH]c3ccccc32)CC1
  14 | 10
44. CCOc1ccccc1-c1noc(Cn2c(=O)c(C#N)cn(CC)c2=O)n1
  10 | 8
45. CN(Cc1nc(N)nc(N(C)C)n1)CC1CCCO1 (stereo not drawn)
  0 | 14
46. COc1ccccc1NC(=O)CSc1nc2ccccc2[nH]1
  -6 | -9
47. Cc1ccn2c(=O)cc(CNCC(c3ccc(F)cc3)N3CCOCC3)nc2c1 (stereo not drawn)
  0 | 0
48. O=C(Nc1nc(C(=O)N2CCN(c3ncccn3)CC2)co1)c1ccccc1
  5 | 2
49. CC(C(=O)Nc1ccccc1Cl)N1CCSC2(CCCCC2)C1 (stereo not drawn)
  1 | 0
50. CC1CCCCN1C(=O)c1ccc(Cl)c([N+](=O)[O-])c1 (stereo not drawn)
  5 | 0

# Further compounds
# Below each compound: NPYLR7 agonist | NPYLR7 agonist max-min
51. COC(=O)c1[nH]ncc1CN1CCN(S(=O)(=O)c2ccccc2)CC1
  1 | -4
52. O=C(CSc1nc(=O)n(CCO)c2c1CCC2)Nc1nc2ccccc2s1
  -1 | -13
53. O=C1c2cccc3cccc(c23)C(=O)N1Cc1ccccc1
  4 | 3
54. CCCCCCNC(=O)c1cccc(Oc2nc(Cc3cccc(OC)c3)ns2)c1
  10 | 9
55. Cc1nc(COc2ccc(F)cc2)sc1C(=O)O
  -11 | -11
56. Cc1ncsc1CCNC(=O)c1ccc2oc(-c3cccc(F)c3)nc2c1
  4 | 4
57. CCC(C)N1CCC(N2CCC(C(=O)NCc3cccnc3)CC2)CC1 (stereo not drawn)
  3 | 3
58. COCCCNC(=O)C(NC(=O)c1ccccc1F)C1CCN(C(=O)C2CCCC2)CC1 (stereo not drawn)
  -1 | 3
59. CCOc1ccc(NC(=O)N2CCN(c3nc(Cc4ccc(C)cc4)nc4onc(-c5cccnc5)c34)CC2)cc1
  19 | 4
60. CC1C(=O)N(c2ccc(Cl)cc2)CCN1C(=O)c1cccc(Cl)c1 (stereo not drawn)
  -1 | 5

# Four of the compounds above, field by field:
51. COC(=O)c1[nH]ncc1CN1CCN(S(=O)(=O)c2ccccc2)CC1
- NPYLR7 agonist: 1
- NPYLR7 agonist max-min: -4
59. CCOc1ccc(NC(=O)N2CCN(c3nc(Cc4ccc(C)cc4)nc4onc(-c5cccnc5)c34)CC2)cc1
- NPYLR7 agonist: 19
- NPYLR7 agonist max-min: 4
54. CCCCCCNC(=O)c1cccc(Oc2nc(Cc3cccc(OC)c3)ns2)c1
- NPYLR7 agonist: 10
- NPYLR7 agonist max-min: 9
56. Cc1ncsc1CCNC(=O)c1ccc2oc(-c3cccc(F)c3)nc2c1
- NPYLR7 agonist: 4
- NPYLR7 agonist max-min: 4

# Additional results follow.
61. NC(C(=O)N[C@@H]1C(=O)N2C(C(=O)O)=C(Cl)CS[C@H]12)c1ccccc1 (stereo partly drawn)
62. NC(=O)CN1CC=C(CCNC(=O)Cc2ccc(F)cc2)CC1
63. Cc1cc(NCCc2nncn2C(C)C)nc(-c2ccccc2)n1
64. CC(=O)c1ccc(C(=O)O)s1
65. CCSc1nc(CC(=O)NCCn2nnc3ccccc32)cs1
66. Cc1nn(C)c(C)c1C(C)NC(=O)N1CCC(Cc2ccccc2)C1 (stereo not drawn)
67. C=CCN(Cc1ccc(-n2cccn2)cc1)Cc1ccco1
68. CCNCC(O)COCc1ccc(OC)c(OC)c1 (stereo not drawn)
69. COc1cn(CC(=O)Nc2ccc([N+](=O)[O-])cc2)c(CSc2ncccn2)cc1=O
70. CC(N)=C(C#N)C(=O)CSc1nc(C)cs1
assay / compound | 61 | 62 | 63 | 64 | 65 | 66 | 67 | 68 | 69 | 70
NPYLR7 agonist | 7 | 1 | 5 | 1 | -1 | 6 | 0 | 3 | -5 | -1
NPYLR7 agonist max-min | -11 | -1 | 7 | -2 | -2 | -1 | -4 | 2 | -10 | 8

71. O=C(O)c1ccccc1C(=O)N1C(=O)C(=Nc2ccccc2[N+](=O)[O-])c2ccccc21
72. O=C(NC1CCN(CC(O)COCC2CCCO2)CC1)c1ccccc1 (stereo not drawn)
73. CC(=O)c1ccc(-c2ccnc3[nH]ccc23)nc1
74. CC(=O)Nc1cccc(-c2cc(N3CCOCC3)nc(N)n2)c1
75. COc1ccc(-n2cccn2)c(CN(C)Cc2noc(C)n2)c1
76. CC1CN(Cc2ccccc2NCc2c(F)cccc2Cl)CC(C)O1 (stereo not drawn)
77. CC(C)(C)C(=O)c1ccc(C(=O)C(C)(C)C)s1
78. NC(=O)CSc1nc2c([nH]c3ccccc32)c(=O)n1-c1ccc([N+](=O)[O-])cc1
79. Cc1ccccc1C(=O)N1C(C(=O)NCc2ccccn2)COC12CCN(C(=O)Cc1cccs1)CC2 (stereo not drawn)
80. CN(C)CCCn1c2c(c(SCC(=O)Nc3nccs3)nc1=O)CCC2
assay / compound | 71 | 72 | 73 | 74 | 75 | 76 | 77 | 78 | 79 | 80
NPYLR7 agonist | 7 | -1 | 7 | -3 | 6 | 10 | -5 | 1 | 1 | 5
NPYLR7 agonist max-min | 2 | -3 | 4 | -3 | 3 | 8 | -7 | 7 | 5 | 3

# Record cards, as listed above. Order of screens: NPYLR7 agonist | NPYLR7 agonist max-min
# Record of COc1ccc(-n2cccn2)c(CN(C)Cc2noc(C)n2)c1 : 6 | 3
# Record of CC(=O)Nc1cccc(-c2cc(N3CCOCC3)nc(N)n2)c1 : -3 | -3
# Record of CC(C)(C)C(=O)c1ccc(C(=O)C(C)(C)C)s1 : -5 | -7
# Record of CC1CN(Cc2ccccc2NCc2c(F)cccc2Cl)CC(C)O1 (stereo not drawn) : 10 | 8
# Record of O=C(O)c1ccccc1C(=O)N1C(=O)C(=Nc2ccccc2[N+](=O)[O-])c2ccccc21 : 7 | 2

# Further entries:
81. CS(=O)(=O)c1ccc(-c2cc(C3(CNCC4CCOCC4)CC3)ccn2)cc1
82. O=C(CCC1CCCN(C(=O)CN2CCCC2=O)C1)Nc1ccc(C(F)(F)F)cc1 (stereo not drawn)
83. Cc1sc2ncn(CCOc3ccc(S(=O)(=O)N(C)C)cc3)c(=O)c2c1C
84. O=C(c1nc(C2CC2)n(-c2ccccc2)n1)N1CCOc2ccccc21
85. CCc1ccc(-n2c3c(c(=S)[nH]c2=O)CCC3)cc1
86. CN1CCC2(CC1)CN(C(=O)CCC(=O)Nc1cccc(F)c1)CCN2C
87. Cc1cccn(CC(=O)N2CCN(C(=O)C3CC3)CC2)c1=O
88. COCc1c(C(=O)N2[C@@H]3CC[C@H]2CN(C)C(=O)C3)noc1C
89. CCC(C)N(CC(=O)N(CCc1ccccc1)Cc1ccco1)S(=O)(=O)c1ccc(Cl)cc1 (stereo not drawn)
90. Cc1cc(=O)[nH]c(N=C(NC(=O)c2ccccc2)Nc2ccccc2)n1
assay / compound | 81 | 82 | 83 | 84 | 85 | 86 | 87 | 88 | 89 | 90
NPYLR7 agonist | -5 | 6 | 1 | -9 | 0 | -2 | -3 | 5 | 0 | 0
NPYLR7 agonist max-min | -7 | 2 | -1 | -9 | -1 | -3 | -10 | 3 | 9 | -1

91. CC1(Cc2ccc(F)cc2)C(=O)Nc2ccc(OC(F)(F)F)cc21 (stereo not drawn)
92. O=C1c2cccc3cccc(c23)C(=O)N1CCCc1n[nH]c(=S)n1-c1ccccc1
93. O=C(CCn1c(=O)oc2ccc(Cl)cc21)NCCCN1CCCC1=O
94. CSc1ccc(NC(=O)c2ccc(S(N)(=O)=O)cc2)cc1
assay / compound | 91 | 92 | 93 | 94
NPYLR7 agonist | -2 | -9 | -12 | 9
NPYLR7 agonist max-min | 2 | -12 | -9 | 5

# The list is partial. The share of hits here may be higher or lower than overall.
